p53 HeLa: p53 stabilisation in HPV-positive human cells, imaging, p53-positive nuclei imaging, 24 h, 48 h (AID 1508601). p53-positive nuclei imaging, 48 h; active compounds read high; some inactives read as strong as hits. p53-positive nuclei, normalised, % at 11 µM unless noted. 5,700 compounds, 1% hits;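 active = mean of two plates above 50% at 24 h or at 48 h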;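 also: HPV-positive HeLa cells with a fluorescent p53 stability reporter; 0% = vehicle and 100% = proteasome inhibitor control; doses worked out from stocks diluted about 900-fold with the highest of each compound shown; many of its hits are not listed in these tables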
p53 HeLa cells 24 h: further read-out of p53 HeLa, marked with its call; nuclei count, normalised, %; measured here: cell number at 24 h;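 100% = vehicle wells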
p53 HeLa p53 24 h: second read-out of p53 HeLa, no call of its own (marks repeat the call); p53-positive nuclei, normalised, %; measured here: p53 positive nuclei at 24 h;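 0% = vehicle and 100% = positive control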
p53 HeLa cells 48 h: second read-out of p53 HeLa, no call of its own (marks repeat the call); nuclei count, normalised, %; measured here: cell number at 48 h;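 100% = vehicle wells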
* hit, by the source's call; [ ] = remark or other dose. Not all compounds are listed (hit frequency here may not be typical).

entry | Compound | p53 HeLa | p53 HeLa cells 24 h
1 | Nc1nc2c(cnn2CCc2ccccc2)c2nc(-c3ccco3)nn12 | -0.1 | 107
2 | OCC1OC(OCCc2ccc(O)cc2)C(O)C(O)C1O (stereo not given) | -0.3[3.7 µM] | 106
3 | Cc1cnc(Nc2ccc(N3CCN(C)CC3)cc2)nc1Nc1cccc(S(=O)(=O)NC(C)(C)C)c1 | 0.1[3.7 µM] | 67
4 | Nc1ccc(S(=O)(=O)Nc2nccs2)cc1 | -0.1[3.7 µM] | 81
5 | CC(NC(=O)c1cc(C(=O)NC(Cc2ccccc2)C(O)CNC2CC2)cc(N(C)S(C)(=O)=O)c1)c1ccccc1 (stereo not given) | 0.1 | 115
6 | CCCCCC(O)CC(=O)CCc1ccc(O)c(OC)c1 (stereo not given) | 0.4 | 104
7 | CN1CCN(Cc2ccc(-c3cnc4[nH]cc(-c5ccc6[nH]ccc6c5)c4c3)cc2)CC1 | 6.7 | 38
8 | CCS(=O)(=O)CCn1c([N+](=O)[O-])cnc1C | 0.1[3.7 µM] | 79
9 | COc1cc(C2c3cc4c(cc3C(OC3OC5COC(c6cccs6)OC5C(O)C3O)C3COC(=O)[C@H]23)OCO4)cc(OC)c1O (stereo not given in full) | 15[3.7 µM] | 44
10 | CN1CCN2c3ncccc3Cc3ccccc3C2C1 (stereo not given) | -0.1[3.7 µM] | 103
11 | O=C1CCC(N2C(=O)c3ccccc3C2=O)C(=O)N1 (stereo not given) | -0.6[3.7 µM] | 89
12 | N#Cc1cccc(C#N)c1-c1nc2c3ccccc3c3cc(Cl)ccc3c2[nH]1 | -0.3 | 121

entry | p53 HeLa p53 24 h | p53 HeLa cells 48 h
1 | -0.1 | 99
2 | -0.4 | 106
3 | -0.3 | 50
4 | -0.2 | 85
5 | 0.1 | 117
6 | 0.4 | 102
7 | 3.0 | 24
8 | -0.2 | 84
9 | 0.5 | 32
10 | -0.2 | 96
11 | -0.2 | 92
12 | -0.2 | 115

Entries of single compounds from above. Order of screens: p53 HeLa, p53 HeLa cells 24 h, p53 HeLa p53 24 h, p53 HeLa cells 48 h
O=C1CCC(N2C(=O)c3ccccc3C2=O)C(=O)N1 (stereo not given) is listed as -0.6[3.7 µM], 89, -0.2, 92
OCC1OC(OCCc2ccc(O)cc2)C(O)C(O)C1O (stereo not given) is listed as -0.3[3.7 µM], 106, -0.4, 106

The listing picks up with the 5 entries that preceded the break.
entry | Compound | p53 HeLa | p53 HeLa cells 24 h
8 | CCS(=O)(=O)CCn1c([N+](=O)[O-])cnc1C | 0.1[3.7 µM] | 79
9 | COc1cc(C2c3cc4c(cc3C(OC3OC5COC(c6cccs6)OC5C(O)C3O)C3COC(=O)[C@H]23)OCO4)cc(OC)c1O (stereo not given in full) | 15[3.7 µM] | 44
10 | CN1CCN2c3ncccc3Cc3ccccc3C2C1 (stereo not given) | -0.1[3.7 µM] | 103
11 | O=C1CCC(N2C(=O)c3ccccc3C2=O)C(=O)N1 (stereo not given) | -0.6[3.7 µM] | 89
12 | N#Cc1cccc(C#N)c1-c1nc2c3ccccc3c3cc(Cl)ccc3c2[nH]1 | -0.3 | 121
13 | COc1ccc2c(Oc3ccc(NC(=O)c4c(C)n(CC(C)(C)O)n(-c5ccccc5)c4=O)nc3)ccnc2c1 | -0.2[3.7 µM] | 111
14 | Fc1ccc(CNc2ncnc3ccc(F)cc23)cc1 | -0.2 | 111
15 | COc1ccc(CC(C)(C)NCC(O)c2cc(O)cc3c2OCC(=O)N3)cc1 (stereo not given) | -0.1 | 98
16 | CC(C)c1cc(C(=O)N2Cc3ccc(CN4CCN(C)CC4)cc3C2)c(O)cc1O | -0.6[3.7 µM] | 52
17 | O=c1ccc2ccc(O)c(O)c2o1 | -0.3[3.7 µM] | 114
18 | O=C1Nc2ccccc2C1=Cc1c(Cl)[nH]c2ccccc12 | 16 | 36
19 | O=C(O)c1ccc(N2C(=O)C(=Cc3ccc(-c4ccc([N+](=O)[O-])cc4)o3)C=C2c2ccccc2)cc1 | 2.4[3.7 µM] | 111
20 | COc1ccc(S(=O)(=O)Nc2cccnc2Nc2ccc(O)cc2)cc1 | 4.2 | 39
21 | CC(=O)c1cc([N+](=O)[O-])c(Sc2ccc(F)cc2F)s1 | -0.1[3.7 µM] | 112
22 | Cc1cc(N2CCOCC2)ccc1Nc1nc(NC2CCCCC2)c2[nH]cnc2n1 | 7.8 | 97

entry | p53 HeLa p53 24 h | p53 HeLa cells 48 h
8 | -0.2 | 84
9 | 0.5 | 32
10 | -0.2 | 96
11 | -0.2 | 92
12 | -0.2 | 115
13 | -0.4 | 112
14 | 0.0 | 121
15 | 0.0 | 105
16 | -0.3 | 41
17 | -0.3 | 113
18 | 5.9 | 24
19 | 1.0 | 100
20 | 2.1 | 27
21 | -0.3 | 103
22 | 0.4 | 81
